Assay outcomes: PubChem BioAssay, ICCB-Longwood Screening Facility, Harvard Medical School
Mtb MenB inh: blocks the Mycobacterium tuberculosis MenB enzyme; P9WNP5; MenB enzyme assay, absorbance read-out; some hits fall short of the stated cut; inhibition, %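 (about 12 µg/mL by stock and volumes)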; 100,000 compounds, 0.43% hits;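 active = mean of two replicates above 30%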;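 note: 0% = no compound and 100% = wells with inactive enzyme; the first replicate is given; strong numbers were not always called active; inactives centre near -10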
Target sequence (P9WNP5 whole entry, looked up): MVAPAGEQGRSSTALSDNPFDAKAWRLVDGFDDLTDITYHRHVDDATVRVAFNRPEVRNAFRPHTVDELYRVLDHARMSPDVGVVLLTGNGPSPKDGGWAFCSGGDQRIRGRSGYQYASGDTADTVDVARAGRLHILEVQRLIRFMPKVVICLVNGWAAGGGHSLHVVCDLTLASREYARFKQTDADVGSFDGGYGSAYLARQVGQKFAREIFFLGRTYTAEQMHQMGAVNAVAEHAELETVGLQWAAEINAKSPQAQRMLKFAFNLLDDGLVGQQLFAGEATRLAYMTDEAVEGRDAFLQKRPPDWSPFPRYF
MbtI inh: inhibitors of Mycobacterium tuberculosis siderophore enzyme MbtI; purified MbtI enzyme, fluorescence intensity read-out; inhibition, %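 (about 17 µg/mL by stock and volumes)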; 100,000 compounds, 0.89% hits; AID 493033;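 active = above 50% in both replicates, above 80% if mildly self-fluorescent; inactive = the rest, strongly fluorescent compounds included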;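 note: 0% = mean of negative and 100% = mean of positive controls; one replicate is shown; some compounds called inactive have numbers as strong as hits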
PV pol inh: poliovirus RNA polymerase inhibition. poliovirus polymerase elongation, fluorescence polarization; active compounds read low. 150,000 compounds, 0.66% hits. % elongation, % (compound at 16.7 µg/mL). P03300; in the data active = % elongation below about 90%; note: some results filed as inactive read as strong as hits
Target sequence (P03300 1749-2209 limits assumed): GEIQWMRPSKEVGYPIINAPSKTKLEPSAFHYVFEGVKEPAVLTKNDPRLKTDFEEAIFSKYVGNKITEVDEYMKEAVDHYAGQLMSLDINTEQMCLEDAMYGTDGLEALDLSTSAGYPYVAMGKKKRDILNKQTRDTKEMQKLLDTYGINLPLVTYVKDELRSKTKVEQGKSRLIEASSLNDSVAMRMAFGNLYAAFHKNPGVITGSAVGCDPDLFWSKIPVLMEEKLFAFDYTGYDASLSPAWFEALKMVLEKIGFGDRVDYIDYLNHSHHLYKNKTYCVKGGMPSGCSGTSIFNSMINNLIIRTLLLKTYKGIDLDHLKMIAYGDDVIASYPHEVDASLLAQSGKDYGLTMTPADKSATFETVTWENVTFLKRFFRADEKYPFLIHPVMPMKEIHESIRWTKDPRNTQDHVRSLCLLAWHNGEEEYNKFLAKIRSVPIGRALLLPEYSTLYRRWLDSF
PV pol inh intensity: recorded beside PV pol inh, whose call it bears; % elongation; measured here: total intensity read-out; formula for this scale not given here;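 total fluorescence in place of polarization; lower means less elongation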
Starred values were filed as active, the others as inactive; i = inactive; . = not tested or not shown; & = joins results of further samples.

A first look, 2 compounds:
compound | Mtb MenB inh | MbtI inh | PV pol inh | PV pol inh intensity
CC(C)OC(=O)CN1C(=O)c2ccc(C(=O)OC(C)C)cc2C1=O | 7 | 13 | 101 | 103
CN1CCC(N(C)C(=O)CSc2ccc3ccccc3c2)CC1 | . | 0 | 100 | 104

The whole of this part, previewed entries included:
compound | Mtb MenB inh | MbtI inh | PV pol inh | PV pol inh intensity
CC(C)OC(=O)CN1C(=O)c2ccc(C(=O)OC(C)C)cc2C1=O | 7 | 13 | 101 | 103
CN1CCC(N(C)C(=O)CSc2ccc3ccccc3c2)CC1 | . | 0 | 100 | 104
O=C(CSc1nnc(-c2ccco2)o1)N1N=C2/C(=C/c3ccco3)CCCC2C1c1ccco1 (stereo unspecified) | -30 | 74 | 101 | 106
COc1ccc(-c2cc3nc(C)c(CCC(=O)NC(C)c4cccs4)c(C)n3n2)c(OC)c1 (stereo unspecified) | -10 | -16 | 101 | 105
Cc1ccc(CN(C)S(=O)(=O)c2ccc(Cl)cc2C(F)(F)F)o1 | -21 | -6 | 103 | 106
CN(C)C(=S)SCC(=O)c1ccc(Cl)cc1 | -12 | -16 | 106 | 109
O=C(CC1Nc2ccccc2NC1=O)Nc1ccc(O)cc1 (stereo unspecified) | 2 | 1 | 104 | 105
O=C(CSCCOc1ccccc1)N1CCOCC1 | -8 | 3 | 100 | 94
Cc1ccc(NC(=O)CN2CCN(CCNS(=O)(=O)c3ccc(C)cc3)CC2)cc1 | -10 | -5 | 104 | 104
CCn1c(C)cc2c(c1=O)C1(C(=O)Nc3ccccc31)C(C(=O)OC)=C(N)O2 (stereo unspecified) | -22 | -6 | 101 | 107
CN(C)c1ccc(/C=C(\C#N)C(N)=C(C#N)C#N)cc1 | -100 | -2 | 69 | 194
COc1cc2c(cc1OC)CN(C(=O)CSc1nc(C)cc(C)c1C#N)CC2 | 3 | 38 | 101 | 101
CCOC(=O)c1c(C)[nH]c(C(=O)OCc2cccc(OC)c2)c1C | -16 | 22 | 98 | 94
O=C(O)c1ccccc1NCc1ccccn1 | -24 | 91 | 100 | 107
COC(=O)CN(C#N)c1nc(C)cc(C)n1 | -7 | -4 | 97 | 103
COc1ccc(N2CN(S(=O)(=O)c3ccc(NC(C)=O)cc3)c3nc4ccccc4nc32)cc1 | -17 | 32 | 100 | 103
CC(=O)Nc1ccc(N2S(=O)(=O)c3ccccc3S2(=O)=O)cc1 | 2 | -6 | 101 | 102
CC1CN=C(N(C(=O)Nc2cccc(Cl)c2)C2CCCCC2)S1 (stereo unspecified) | -2 | -8 | 105 | 107
CC1(C)OC(=O)C(=Cc2ccccc2F)C(=O)O1 | -4 | 9 | 102 | 97
CCCCn1c(=O)n(CC(=O)NC2CCCCC2C)c(=O)c2c1ncn2CCC(C)C (stereo unspecified) | 5 | 0 | 98 | 97
NC(Cc1ccccc1)C(O)(c1ccccc1)c1ccccc1 (stereo unspecified) | -10 | -14 | 102 | 102
c1coc(CN2CCNCC2)c1 | -22 | -4 | 102 | 102
CC(C)Cn1c(SCC(=O)Nc2sccc2C#N)nnc1-c1ccco1 | -35 | 11 | 101 | 107
CCOC(=O)C(=NC1CCS(=O)(=O)C1)NNc1cc(C(F)(F)F)ccc1Cl (stereo unspecified) | 1 | 14 | 99 | 103
CCc1ccc2[nH]c(=O)c(C(c3nnnn3C(C)(C)C)N3CCN(C(=O)c4ccco4)CC3)cc2c1 (stereo unspecified) | -6 | . | 105 | 113
O=c1/c(=C/c2cccs2)sc2ncnn12 | -10 | -7 | 98 | 103
Cn1c(=NC(=O)c2ccc(S(=O)(=O)N3CCCCC3)cc2)sc2c3ccccc3ccc21 | -9 | -7 | 102 | 99
CC(C)Cn1c(Sc2ncnc3sccc23)nc2ccccc2c1=O | -24 | -4 | 106 | 106
Cc1cccc(C(=O)OCC(=O)NC2CCS(=O)(=O)C2)c1C (stereo unspecified) | -25 | -3 | 99 | 105
CCOC(=O)c1c(-c2ccccc2)oc2ccc(O)c(CN3CCCC3)c12 | -2 | 1 | 101 | 101
N/C(=N/OC(=O)c1ccccc1F)c1nonc1N | -8 | 2 | 104 | 101
COc1ccccc1N1C(=O)S/C(=C\c2ccccc2)C1=O | 1 | -6 | 103 | 109
O=C(c1ccc(N2CCOCC2)cc1)c1cccs1 | -31 | 6 | 102 | 104
COc1cccc(NC(=O)Cn2c(=O)oc3cc(S(=O)(=O)N4CCCCC4C)ccc32)c1 (stereo unspecified) | -4 | -12 | 100 | 102
O=C(C1CC1)N(Cc1ccccn1)c1nc2ccccc2s1 | -6 | 11 | 99 | 105
CCOC(=O)c1cc(-c2ccccc2)nn1-c1ccccc1 | . | -8 | 101 | 105
Cc1ccc(C)c(Cn2cnc3c(cnn3CCO)c2=O)c1 | -13 | 2 | 104 | 102
CC(C)(C)NCc1nc(-c2ccccc2)no1 | -7 | -9 | 105 | 110
O=C1c2ccccc2C(=O)N1/N=C/c1ccc(-c2ccccc2Br)o1 | -22 | -3 | . | .
CCOC(=O)c1cnc(SCC(=O)N2CCCCC2)nc1N | 11 | -8 | 102 | 102
O=c1[nH]cnc2nc(-c3ccccc3)c(-c3ccccc3)nc12 | -4 | 78 | 104 | 103
O=C1Nc2ccccc2S/C1=C\C(=O)N1CCc2ccccc2C1 | -7 | 14 | 101 | 102
CSCCC(=O)Nc1nc2ccccc2[nH]1 | -6 | -12 | 104 | 107
CC1C/C(=N\NC(=S)NC(C)C)CC(C)(C)C1 (stereo unspecified) | -54 | -13 | 104 | 99
FC(F)(F)c1ccccc1-n1ccnc1 | -3 | -10 | 100&97 | 103&102
COC(=O)c1ccc(Cn2cnc3c(cnn3C)c2=O)cc1 | -4 | -3 | 103 | 108
CC1CCCN(CCCNC(=O)c2nc(-c3cccnc3)no2)C1 (stereo unspecified) | -19 | -15 | 107 | 109
COc1ccc(C2CC(=O)c3cnc(NC(=O)c4ccccc4)nc3C2)cc1 (stereo unspecified) | -21 | 9 | 99 | 100
O=C(CSc1ncccn1)NCc1ccc(Cl)cc1 | . | 0 | 103 | 99
CCSC1=C(C#N)C(=O)NC(C(C)C)S1 (stereo unspecified) | -20 | 11 | 103 | 99
COc1c(C)cc(Br)cc1C(=O)NC(=S)Nc1cccc(-c2nc3ncccc3o2)c1C | -3 | -8 | 98 | 100
O=C1CCCc2cc(S(=O)(=O)NCCCN3CCN(c4ccccc4)CC3)ccc2N1 | -25 | -9 | 103 | 103
O=C(CCC(=O)N1CCc2ccccc2C1)N1CC=C(c2c[nH]c3ccccc23)CC1 | 5 | -26 | 104 | 99
CCOc1ccc2oc(=O)cc(CN(Cc3ccco3)C3CCCC3)c2c1 | -36 | -1 | 104 | 109
COc1cnn(C(C)(C)C)c(=O)c1Cl | -47 | -11 | 100 | 105
Cc1ccnc(SCn2c(=S)sc3ccccc32)n1 | 11 | 12 | 99 | 92
CC(C)Cc1nc2ccccc2n1CC(=O)N(c1ccccc1)C(C)C | -16 | -10 | 103 | 106
CCN(CC)S(=O)(=O)c1ccc(/C=C/C(=O)OCC(=O)N2CCCCC2)cc1 | -6 | 3 | 91 | 92
CCOC(=O)CSc1nnc(-c2cccc(S(=O)(=O)N3CCCCC3)c2)n1-c1ccccc1 | -16 | -3 | 102 | 103
COC(=O)c1c(NC(=O)CSc2nnnn2-c2ccccc2)sc2c1CCC2 | 7 | -5 | 102 | 108

A second format for some results above:
Screens in order: Mtb MenB inh, MbtI inh, PV pol inh, PV pol inh intensity
O=C(CSc1ncccn1)NCc1ccc(Cl)cc1
 : ., 0, 103, 99
CCSC1=C(C#N)C(=O)NC(C(C)C)S1 (stereo unspecified)
 : -20, 11, 103, 99

Next results:
compound | Mtb MenB inh | MbtI inh | PV pol inh | PV pol inh intensity
S=c1[nH]c(=S)c2ccccc2[nH]1 | -7 | 25 | 103 | 108
CC(C)OC(=O)CC1C(=O)NCCN1C(=S)NC(=O)C1CCCCC1 (stereo unspecified) | -31 | 26 | 106 | 103
Cc1cc(C)n(C(=O)C2CC(=O)N(c3ccccc3)C2)n1 (stereo unspecified) | -8 | -6 | 103 | 102
COc1ccc(Cn2c(=O)c3[nH]cnc3n(-c3cc(S(C)=O)ccc3C)c2=O)cc1 (stereo unspecified) | -2 | -11 | 105 | 107
COc1cc(C2Nc3ccc4ncccc4c3C3=C2C(=O)CCC3)cc(OC)c1O (stereo unspecified) | -48 | 7 | 106 | 101
c1ccc(CN2CCNCC2)nc1 | -30 | -10 | 103 | 103
CN(C)c1ccc(P(C)(C)=O)cc1 | 0 | 2 | 96 | 100
Cc1[nH]c(SCC(=O)N2CCN(CC3CCCO3)CC2)nc1Cc1ccccc1 (stereo unspecified) | -19 | 0 | 100 | 108
CCNc1nc2[nH]c(=O)cc(O)c2s1 | -199 | 18 | 98 | 100
S=c1nn[nH]n1CCc1ccc(Cl)cc1 | 1 | 25 | 102 | 104
CC(C1CC1)N(CC(F)(F)F)C(=O)CSc1nnc(-c2ccccc2Cl)o1 (stereo unspecified) | -1 | 5 | 99 | 94
O=c1c(Br)c(NCCCO)cnn1-c1ccccc1 | -23 | 13 | 102 | 102
Cn1cc(C(=O)c2cc(F)ccc2O)cc(C#N)c1=O | -23 | 5 | 106 | 111
CN(C)C(=O)n1nnc2ccccc21 | -21 | 3 | 101 | 102
O=C(Cn1nnc(-c2cccc(Cl)c2)n1)NCC(=O)Nc1ccc(F)cc1 | 4 | -11 | 103 | 107
O=c1oc2ccccc2cc1-c1ccc2c(c1)OCO2 | -13 | . | 105 | 112
O=C1CCc2cc(S(=O)(=O)NC(Cc3ccccc3)C(=O)N3CCN(c4ccccc4)CC3)ccc2N1 (stereo unspecified) | 9 | 0 | 100 | 102
CCN1CCCC1CNC(=O)c1csc2c1CCCCC2 (stereo unspecified) | -8 | -9 | 99 | 96
COc1ccc(NC(=O)COc2ccccc2Cl)cc1NC(=O)c1ccco1 | -41 | -170 | 101 | 105
COCCN1C(=O)C(C(=O)O)C2CC1(C)Oc1ccccc12 (stereo unspecified) | -29 | -29 | 100 | 85
c1ccc(CCc2nc(-c3ccccc3)no2)cc1 | -10 | -7 | 100 | 103
CCc1ccc2nc(N(CCN(C)C)C(=O)c3ccc(N(C)C)cc3)sc2c1 | 6 | 3 | 99 | 100
CN(Cc1ccc(-c2ccc(Br)cc2)o1)C(=O)Cc1ccsc1 | -26 | 63 | 99 | 98
NC(=O)N1CC(O)CC1C(=O)Nc1ccc(Cl)c(Cl)c1 (stereo unspecified) | -15 | 2 | 99 | 106
CC(=N\N1CCOCC1)/C(C)=N/N1CCOCC1 | -9 | 15 | 103 | 109
CC(=O)Nc1cc2c(cc1C(=O)C(C)C)OCCO2 | -11 | -21 | 100 | 102
O=C(Nc1nc(-c2cccs2)cs1)c1ccc(Cl)cc1 | . | 23 | 101 | 105
Nc1ccc2nc(-c3ccccc3)oc2c1 | -16 | 115 | 100 | 102
O=C(Nc1ccccc1O)c1csc2c1CCCC2 | -2 | -3 | 103 | 102
CN(C)c1oc(-c2ccc(Cl)cc2)nc1C#N | -13 | 107 | 104 | 104

Complete entries from above. Values in the order: Mtb MenB inh | MbtI inh | PV pol inh | PV pol inh intensity
Nc1ccc2nc(-c3ccccc3)oc2c1 is entered as -16 | 115 | 100 | 102
NC(=O)N1CC(O)CC1C(=O)Nc1ccc(Cl)c(Cl)c1 (stereo unspecified) is entered as -15 | 2 | 99 | 106

Additional compounds
compound | Mtb MenB inh | MbtI inh | PV pol inh | PV pol inh intensity
CCc1cc2c(=O)n(CC)c(SCC3CCCCO3)nc2s1 (stereo unspecified) | -3 | -2 | 103 | 102
CN(C)c1nc(NCCNS(=O)(=O)c2ccc(Cl)cc2)nc(N(C)C)n1 | -20 | -16 | 102 | 101
CC(=O)N1N=C(c2ccc(C(C)(C)C)cc2)OC1(C)C | -22 | i | 103 | 104
Fc1ccc(C(c2nnnn2Cc2ccccc2)N2CCSCC2)cc1 (stereo unspecified) | 0 | -6 | 102 | 100
Cc1ccc(CNC(=O)c2cccnc2Sc2cccc(C(F)(F)F)c2)cc1 | 6 | 0 | 104 | 107
N#Cc1ccc(COc2ncnc3ccccc23)cc1 | 4 | -16 | 113 | 112
O=C(CSc1ncnc2c1nnn2Cc1ccc(F)cc1)c1ccccc1 | 5 | 11 | 105 | 105
Cc1ccc2c(c1)CCCN2C(=O)CC(=O)N1CCCc2cc(C)ccc21 | -100 | -6 | 92 | 97
Cc1ccc(Br)cc1S(N)(=O)=O | 3 | -1 | 104 | 108
COc1cccc(NC(=O)CSc2ccccc2)c1 | -20 | . | 104 | 111
CCCCCCCCCCCCC/C=C/[C@@H](O)[C@H](CO)NC(C)=O | -4 | -13 | 105&101 | 104&103
Cc1ccc(CNC(=O)NCCN2CCN(c3ccccc3)CC2)cc1 | -15 | -6 | 103 | 105
C1=CC2C=CC1c1ccccc12 | 7 | 5 | 102 | 104
